GALR2 agonist – activates the human galanin receptor 2; O43603; GALR2-expressing cells, agonist activation read-out; activation, %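 (tested at 5 µM)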; 140,000 compounds, 0.48% hits;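 active = above mean plus 3 SD of all compounds, about 5% in these data, not always enough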;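 note: 0% = vehicle buffer wells and 100% = reference agonist at full effect; tested in CHO reporter cells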
Target sequence (O43603 whole entry, looked up): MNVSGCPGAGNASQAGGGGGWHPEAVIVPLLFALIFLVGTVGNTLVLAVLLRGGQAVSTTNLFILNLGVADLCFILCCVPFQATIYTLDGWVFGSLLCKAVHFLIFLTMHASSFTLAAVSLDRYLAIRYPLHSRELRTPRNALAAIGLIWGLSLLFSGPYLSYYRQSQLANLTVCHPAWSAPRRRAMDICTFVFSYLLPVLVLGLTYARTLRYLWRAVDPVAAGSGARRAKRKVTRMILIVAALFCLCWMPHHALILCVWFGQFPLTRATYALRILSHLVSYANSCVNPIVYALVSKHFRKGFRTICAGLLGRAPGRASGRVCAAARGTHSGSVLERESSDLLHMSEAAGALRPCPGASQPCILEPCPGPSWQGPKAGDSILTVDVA
Insulin prom inh – TRM-6 insulin promoter activity inhibition; inhibition, % at 2 µM; TRM-6 cells (human fetal islet line), insulin promoter-eGFP reporter, imaging; reporter expression induced with tamoxifen; 130,000 compounds, 0.9% hits;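 active = inhibition above the mean plus 3 SD, with well images judged a real hit on visual review, cut at about 60% in these data, passing the limit was not always enough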
RGS16-Gao HTS – regulators of human RGS16-Galphao interaction | bead-based flow cytometry RGS16-Galphao binding, fluorescence; actives lie on both sides | 220,000 compounds, 0.38% hits | AID 1441 | binding response (% of control), % at 10 µM | O15492+P09471;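 active = below 25% or above 175%, edge rows of some plates excepted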;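 note: Galphao activated by GDP with aluminum fluoride before binding; 100% = wells without compound and 0% = beads without RGS; some results beyond the cut were filed as inactive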
Target sequence (O15492 whole entry, looked up): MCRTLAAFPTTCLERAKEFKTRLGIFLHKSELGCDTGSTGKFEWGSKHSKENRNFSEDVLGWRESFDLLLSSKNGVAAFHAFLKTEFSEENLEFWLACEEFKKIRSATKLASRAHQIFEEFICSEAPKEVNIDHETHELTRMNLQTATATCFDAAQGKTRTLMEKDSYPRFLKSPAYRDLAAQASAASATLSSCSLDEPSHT
Target sequence (P09471 whole entry, looked up): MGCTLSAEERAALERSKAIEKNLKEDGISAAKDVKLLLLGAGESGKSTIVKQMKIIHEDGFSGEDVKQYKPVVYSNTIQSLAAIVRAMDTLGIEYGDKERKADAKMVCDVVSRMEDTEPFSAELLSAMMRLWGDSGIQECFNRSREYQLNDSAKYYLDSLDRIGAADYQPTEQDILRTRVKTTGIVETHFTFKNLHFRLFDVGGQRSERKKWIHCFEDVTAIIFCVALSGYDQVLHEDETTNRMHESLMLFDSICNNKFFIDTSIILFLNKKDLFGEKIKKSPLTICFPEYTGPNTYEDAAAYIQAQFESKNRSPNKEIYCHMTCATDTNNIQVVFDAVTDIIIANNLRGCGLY
HSV augment – HSV replication enhancement | 220,000 compounds, 0.005% hits | HSV replication augmentation in cells, fold increase | AID 1956 | maximum fold increase;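 active = peak rise of 1.5-fold or more in the series; tested in PC3 cells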;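 note: first round at 10 µM; read as green reporter fluorescence; hits show the peak of a series up to 25 µM; 1 = signal of infected wells without compound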
PKD1 inh – blocks activity of human protein kinase D1. Q15139. 200,000 compounds, 0.056% hits. PKD1 kinase fluorescence polarization assay. inhibition, %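 (about 10 µM by stock and volumes)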;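 active = inhibition of 50% or more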;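 note: controls were vehicle for no effect and a reference inhibitor for full effect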
Insulin prom inh cell count – also measured in Insulin prom inh; calls as there; normalized cell count, %; measured here: cell count, toxicity; reference of the scale not given here;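 cells exposed to compound for 48 h; stained nuclei by imaging scaled within each plate; lower means fewer cells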
HSV augment primary fold – also measured in HSV augment; calls as there; fold increase; compound at 10 µM; measured here: primary screen fold increase 10 uM; tested in PC3 cells;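 GFP signal in the first replicate; 1 = infected wells without compound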
Starred values were filed as active, the others as inactive; i = inactive; . = not tested or not shown. This is a random part of the collection; 1.3% or so of the library scored in one or more.

SMILES,GALR2 agonist,Insulin prom inh,Insulin prom inh cell count,RGS16-Gao HTS,HSV augment,HSV augment primary fold,PKD1 inh
CC12CCC(C(=O)N(CCCN3CCN(Cc4ccccc4)CC3)C1=O)C2(C)C (centres undefined),.,23.1,54.2,39.1,i,0.93,2.6
COc1ccccc1N1CCN(C(CNS(=O)(=O)c2cccs2)c2cccnc2)CC1 (centres undefined),1.9,.,.,107.5,i,0.69,-6.5
C/C(Cc1ccccc1)=N\NC(=O)CNC(=O)c1ccc(Cl)cc1Cl,.,.,.,96.6,i,1.09,.
Nc1nncn1C(=O)c1cccs1,-1.3,31.2,68.1,135.4,i,0.983,8.3
Cc1ccc(CNC(=O)CN2CCC(C(N)=O)CC2)cc1,-0.5,-18.2,58.6,96.4,i,0.82,-7.4
COc1ccc(/C=N/Nc2ccc(C(F)(F)F)cc2[N+](=O)[O-])cc1O,0.9,-9.7,154.5,101.1,i,0.92,-7.2
COC(=O)C1=C(C)N(C)C(=S)NC1c1c(OC)ccc2ccccc12 (centres undefined),.,.,.,98.4,i,0.91,3.3
O=C(CSc1nnc(NC(=O)c2ccco2)s1)Nc1ccc(F)cc1,.,.,.,100.2,i,0.98,2.0
O=C(NCc1ccco1)C1CCN(C(=O)Cc2ccccc2)CC1,-0.2,52.6,90.2,119.0,i,0.92,0.8
Nc1nnc(Cc2ccc(Cl)cc2Cl)s1,-1.3,-97.1,80.9,111.8,i,1.02,-1.1
COc1cc2c(cc1OC)CN(c1ccc([N+](=O)[O-])cc1Cl)CC2,-1.6,38.5,133.2,108.5,i,1.01,10.7
O=C(CCC1CCCC1)N1CCN(C(=O)C2CC2)CC1,-3.4,-25.0,102.8,94.6,i,0.93,7.4
CC(C)(C)NC(=S)Nc1ccc(Br)cc1,-1.9,-51.4,57.6,97.3,i,1.09,-14.7
COC(=O)CNC(=O)C(C)NC(=O)CNC(=O)OCc1ccccc1 (centres undefined),-2.6,34.2,147.3,101.8,i,0.977,-11.3
O=C(c1ccccc1)N1CCN(Cc2cccc(Oc3ccccc3)c2)CC1,-0.2,-5.9,184.7,102.1,i,0.99,6.2
Cn1cnnc1SCCC(=O)Nc1ccc(Cl)cc1,-2.2,-81.2,93.8,83.7,i,0.88,-9.1
COc1ccc(CNC(=O)C(C)N2C(=O)COc3ccc(C)cc32)c(OC)c1 (centres undefined),.,.,.,99.8,i,0.82,.
CC(C)C(NC(=O)c1ccc(Cl)cc1)C(=O)O (centres undefined),-0.9,-3.5,162.8,101.4,i,1.02,-8.1
CC/C(=N\NC(=O)c1c(-c2ccccc2)noc1C)c1ccc(C)o1,-2.2,-57.1,68.0,98.0,i,1.03,1.2
O=C(Cn1nc(-c2ccc(Cl)cc2)c2ccccc2c1=O)NN1CCOCC1,.,.,.,102.9,i,1.15,.
COCCNC(=S)N1CCc2cc(OC)c(OC)cc2C1COc1ccc(F)cc1 (centres undefined),.,54.5,139.7,105.1,i,0.91,3.5
CCN(c1ccccc1)S(=O)(=O)c1ccc(Cl)c(C(=O)OCC(=O)c2[nH]c(C)c(C(C)=O)c2C)c1,-0.4,0.0,98.3,105.2,i,1.11,-5.4
O=C(NC1(O)C(=O)c2ccccc2C1=O)c1ccc(C(F)(F)F)cc1,.,.,.,97.8,i,0.87,.
CC12COC3(C(=O)Nc4ccc(F)cc4)CC1CCC32C (centres undefined),0.8,.,.,104.6,i,1.09,1.4
Cn1c(=O)c2c(nc(NN=C3CCCCC3)n2C)n(C)c1=O,.,43.8,88.6,98.2,i,0.94,-1.4
CCC(CC)NC(=O)CON=C1c2ccccc2-c2ccccc21,-0.2,-87.8,105.1,112.0,i,0.92,-0.1
CCOCCSc1nc2c(c(=O)[nH]c(=O)n2C)n1CCCc1ccccc1,-0.1,-7.7,90.4,99.8,i,0.98,-14.0
CN1/C(=C\C(=O)c2ccco2)C(C)(C)c2ccccc21,4.1,.,.,93.2,i,1.19,-3.9
CCC(C)c1ccc(NC(=O)C2CCN(c3ncccn3)CC2)cc1 (centres undefined),0.6,38.1,104.2,110.6,i,0.86,-1.6
O=C1CN(C(=O)c2ccc(Cl)c(S(=O)(=O)N3CCc4ccccc43)c2)c2ccccc2N1,.,.,.,100.9,i,0.68,.
CCN1CCN(CCn2c(=S)[nH]c3cc4c(cc3c2=O)OCO4)CC1,-2.4,16.1,98.8,84.0,i,0.84,-1.1
CCOC(=O)c1sc(=NC(=O)c2ccc(C)c(C)c2)n(C)c1C,.,-33.3,62.8,101.6,i,0.87,-1.9
Cc1ccc(N/C=C/C(=O)c2cccs2)cc1C,.,-29.4,94.8,99.4,i,1.13,8.7
CCOC(=O)CN1C(=O)S/C(=C/c2cccc([N+](=O)[O-])c2O)C1=O,.,-33.3,102.2,99.8,i,0.96,1.2
CCCOc1ccc(C2/C(=C(/O)c3ccc(F)cc3)C(=O)C(=O)N2CCCN(C)C)cc1 (centres undefined),-2.2,56.2,170.2,99.6,i,0.8,-1.7
Cc1ccc(-c2nc(C3CCCN(S(=O)(=O)c4ccc(C(F)(F)F)cc4)C3)no2)cc1 (centres undefined),-0.8,33.3,113.0,106.2,i,0.91,-4.6
Cc1ccc(C2(C(F)(F)F)N=C3Sc4cc(C)cc(C)c4N3C(=O)N2)cc1 (centres undefined),-6.3,19.4,149.0,101.2,i,0.74,-1.4
C/C(CC(=O)Nc1ccc(Cl)c(Cl)c1)=N\NC(N)=S,-2.1,-30.0,98.3,100.8,i,0.98,-6.8
COc1ccc(OC)c(C(=O)NC(CC(N)=O)c2ccc(NCCN3CCOCC3)c([N+](=O)[O-])c2)c1 (centres undefined),.,.,.,95.1,i,0.925,.
Cc1nc2cc(NC(=O)NCCC3=CCCCC3)ccc2o1,1.0,2.5,171.4,100.2,i,0.88,-7.0
COc1ccccc1-c1n[nH]c(=S)n1N,.,-33.3,96.5,94.6,i,1.02,-1.5
O=C(OCc1cc(=O)n2cc(Br)ccc2n1)C1COc2ccccc2O1 (centres undefined),-1.4,.,.,98.0,i,0.85,1.5
O=C1CSC(=S)N1c1cccnc1,0.3,-67.9,125.8,99.2,i,1,-7.9
CCc1ccc(Oc2nnnn2-c2ccc(C(N)=O)cc2)cc1,.,.,.,96.9,i,0.9,-6.3
Cc1ccccc1CS(=O)(=O)c1cnc2ccccc2n1,-0.8,53.6,161.6,100.7,i,0.963,-1.8
CCN(Cc1nc2cc(OC)c(OC)cc2c(=O)[nH]1)C(=O)c1ccc(S(=O)(=O)N(C)C)cc1,-1.9,-10.8,185.2,99.8,i,0.98,-9.0
NC(=O)c1ccsc1NC(=O)c1ccc(N2CCCC2=O)cc1,.,.,.,97.1,i,1.02,-3.4
CCCCC(=O)Nc1ccc(NC(=O)CCCC)nc1,-3.0,.,.,102.3,i,1,2.7
COCCOC(=O)c1[nH]c2c(c1C)C(=O)CC(c1ccco1)C2 (centres undefined),-1.7,.,.,84.8,i,0.68,-9.4
Cc1oc(-c2cccc(Cl)c2)nc1CN1CCCC(C(=O)NCCCN2CCOCC2)C1 (centres undefined),-2.6,-135.7,71.5,101.3,.,.,-12.2
CNC(=O)c1ccccc1S(=O)c1ccccc1C#N (centres undefined),-1.5,41.4,123.0,102.3,i,0.87,-2.0
COc1ccc(C(=O)NCc2ccc(-c3nc4ccccc4s3)cc2)cc1,-2.1,.,.,100.5,i,0.88,-0.7
CCOc1cc(S(=O)(=O)N(CC)CC)ccc1Br,-4.5,3.0,129.2,83.9,i,0.85,-10.9
Cc1onc(-c2ccccc2)c1C(=O)Nc1ccc(S(=O)(=O)N2CCCC2)cc1,.,77.8*,37.2*,111.3,i,0.93,-5.5
CCCOc1ccc(N2C(=O)CC(N(Cc3ccc(S(N)(=O)=O)cc3)C(=O)CC)C2=O)cc1 (centres undefined),-0.7,48.0,120.2,92.5,i,0.87,-6.5
O=C(N/N=C(\CC(=O)c1cccs1)C(F)(F)F)c1cccnc1,.,.,.,101.8,i,1,.
Nc1nc(CSc2ccc(Cl)cc2)nc(N2CCCCC2)n1,.,-20.0,121.4,110.7,i,0.98,-3.3
Cc1ccc(NC(=O)c2ccccc2OCC(=O)c2ccc(F)cc2)cc1,0.6,55.2,121.0,96.0,i,0.77,4.6
CCOC(=O)N1CCC(=NNC(=O)c2ccccc2F)CC1,-1.2,.,.,107.0,i,0.91,5.6
O=C(O)/C=C/C(=O)N1Cc2cc3ccccc3nc2C1,.,.,.,94.3,i,1.1,.

Continuation.
SMILES,GALR2 agonist,Insulin prom inh,Insulin prom inh cell count,RGS16-Gao HTS,HSV augment,HSV augment primary fold,PKD1 inh
O=C1COc2ccc(C(=O)COC(=O)c3ccco3)cc2N1,.,.,.,103.8,i,0.94,.
Cc1ccc(Sc2ccc(C(=O)NC(C)C)cc2[N+](=O)[O-])cc1,-2.0,11.1,126.8,108.9,i,1,-1.0
C=CCNc1nc2c(c(=O)[nH]c(=O)n2C)n1CCCCC,-0.8,50.0,143.9,95.0,i,0.98,2.1
COc1cc(NC(=O)Cn2ccsc2=N)cc(OC)c1,.,.,.,101.2,i,0.87,.
O=C(c1nc2ccccn2c1CN1CCCC(OCc2ccccc2)C1)N1CCCC1 (centres undefined),.,.,.,127.8,i,1.05,-6.6
C/C(=C\c1ccccc1)C(=O)Nc1nc2ccc([N+](=O)[O-])cc2s1,-1.0,25.9,134.8,102.1,i,0.88,1.9
Cc1ccccc1NC(=O)CSCCO,-3.0,26.7,160.6,101.5,i,0.89,-8.7
NCCNC(=O)Cc1cccc(NC(=O)Cc2ccc(Nc3ncnc4c3ncn4[C@@H]3O[C@H](CO)[C@@H](O)[C@H]3O)cc2)c1,.,.,.,99.4,i,1.1,.
O=C(Nc1nc(-c2ccc(F)c(F)c2)cs1)c1cc([N+](=O)[O-])ccc1N1CCOCC1,-1.0,.,.,91.7,i,0.75,-2.8
COC(=O)c1c(N)nc(C)n1-c1ccc(OC)cc1,-1.8,.,.,99.2,i,0.97,-5.0
O=C1CS/C(=N\c2ccccn2)N1C1CCCCC1,-0.3,-42.9,134.5,87.8,i,0.96,-8.0
COc1ccc(/C=N/OCC(=O)NC(c2ccccc2)c2ccccc2)cc1OC,0.8,-14.3,118.2,97.3,i,0.89,-0.3

Single records, from the list above. Values in the order: GALR2 agonist	Insulin prom inh	Insulin prom inh cell count	RGS16-Gao HTS	HSV augment	HSV augment primary fold	PKD1 inh
O=C1COc2ccc(C(=O)COC(=O)c3ccco3)cc2N1 is entered as .	.	.	103.8	i	0.94	.
O=C(c1nc2ccccn2c1CN1CCCC(OCc2ccccc2)C1)N1CCCC1 (centres undefined) is entered as .	.	.	127.8	i	1.05	-6.6
Cc1ccc(Sc2ccc(C(=O)NC(C)C)cc2[N+](=O)[O-])cc1 is entered as -2.0	11.1	126.8	108.9	i	1	-1.0
O=C(Nc1nc(-c2ccc(F)c(F)c2)cs1)c1cc([N+](=O)[O-])ccc1N1CCOCC1 is entered as -1.0	.	.	91.7	i	0.75	-2.8
C=CCNc1nc2c(c(=O)[nH]c(=O)n2C)n1CCCCC is entered as -0.8	50.0	143.9	95.0	i	0.98	2.1

Assay outcomes deposited in PubChem BioAssay by several laboratories.
